# High-throughput results (PubChem)
# TsaE inh = qHTS Assay for Inhibitors of YjeE | actives 0.05% (n = 71,000) | tRNA threonylcarbamoyladenosine biosynthesis protein TsaE (Escherichia coli (strain … | purified YjeE, fluorescence polarisation of a bound ADP probe | Potency, µM; active = well fitted falling curve; inconclusive = weaker or top-dose-only fall, or a rising curve; inactive = flat or poorly fitted curve;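 note: top concentration of the series not given in the record; excess ADP was the control for the full effect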
#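 Purified YjeE (10 uM) with BODIPY Texas Red-labeled ADP probe (2 uM); compounds pin-transferred, 15 min at room temperature. Binding inhibition read as decreased fluorescence polarization; ADP titration as control.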
# Bst PK mod = Pyruvate Kinase; partly purified Bacillus stearothermophilus pyruvate kinase, luminescence ATP production; ribose 5-phosphate activator present at AC10; Potency, µM; actives 1.2% (n = 51,000); in the data active means potency below about 11 µM; inconclusive means mostly about 12 µM to 25 µM; inactive means weaker than that;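 the screen sought inhibitors and activators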;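 note: potency is the fitted concentration of half-maximal effect; scaled between full activation by ribose 5 phosphate and full inhibition by luteolin; about four in five hits inhibit and the cells do not say which; series up to 57 µM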
# * marks the source's active call; other numbers are inactive results; i = inactive; ? = inconclusive; . = not tested or not shown.
# Preview, three compounds:
TsaE inh | Bst PK mod | molecule
i | >57 | O=C(Cn1cnc2ccccc21)NCCCN1CCOCC1
i | . | CCn1cc(C(=O)N2CCn3c(nc4ccccc43)C2)c(=O)c2ccc(C)nc21
i | . | Nc1ncnc2nc(N3CCN(CCO)CC3)[nH]c12

# The list itself, from the start:
TsaE inh | Bst PK mod | molecule
i | >57 | O=C(Cn1cnc2ccccc21)NCCCN1CCOCC1
i | . | CCn1cc(C(=O)N2CCn3c(nc4ccccc43)C2)c(=O)c2ccc(C)nc21
i | . | Nc1ncnc2nc(N3CCN(CCO)CC3)[nH]c12
i | >57 | CC(=O)Nc1ccc(N2CCOCC2)c(C(=O)Nc2cccc(C)c2)c1
i | >57 | O=C(CN1CCN(c2ccccn2)CC1)Nc1ccc2ccccc2c1
. | >26 | CC(C)CC(=O)Nc1ncnc2c1C(=O)CC(C)(C)C2
i | >57 | O=C1N2CCSC2=NC1(Nc1ccccn1)C(F)(F)F (stereo not drawn)
i | >57 | NC1=NC(c2cn(-c3ccccc3)nc2-c2cccs2)n2c(nc3ccccc32)N1 (stereo not drawn)
i | . | O=C(O)C1C2C=CC(O2)C1C(=O)NC1CCCc2ccccc21 (stereo not drawn)
i | >57 | N#CC12C(N)=NC3(OCCO3)C1(C#N)C1=C(CCC1)NC2c1ccccc1 (stereo not drawn)
i | >57 | CCN1CCN(S(=O)(=O)c2cc(C)c(OC)cc2C)CC1
i | >57 | CN(Cc1cc2ccccc2[nH]c1=O)S(C)(=O)=O
i | >57 | CC(=O)Nc1ccc(S(=O)(=O)NCC2CCC(C(=O)N3CCCCCC3)CC2)cc1 (stereo not drawn)
i | >57 | Cn1c(CCN2CCCCC2)nc2cc(NC(=O)Nc3ccccc3)ccc21
i | . | Cn1c(CN2CCN(c3ccc(Cl)cc3)CC2)nc2ccccc21

# Quoted from the listing.
# For Bst PK mod, CCN1CCN(S(=O)(=O)c2cc(C)c(OC)cc2C)CC1 has the entry >57
# For Bst PK mod, CN(Cc1cc2ccccc2[nH]c1=O)S(C)(=O)=O has the entry >57

# Carrying on:
TsaE inh | Bst PK mod | molecule
i | >57 | O=C(NCc1ccccc1)c1c(O)c2cccc3c2n(c1=O)CCC3
i | >57 | COc1ccccc1N1CCN(CC(=O)Nc2c(C)n[nH]c2C)CC1
i | >57 | O=C(c1ccco1)N(Cc1ccco1)c1ccc(O)cc1
i | >57 | CCOc1nc(C)ccc1-c1noc(-c2ccccc2OC)n1
. | >26 | Cc1cccc(-c2nnc3n2N=C(c2ccc(Br)cc2)CS3)c1
i | >57 | COc1cc(Cl)ccc1S(=O)(=O)n1nc(C)cc1C
i | . | Cc1nc2cncnc2n(Cc2ccc(F)cc2)c1=O
i | >57 | Nn1c(SCc2cccc3ccccc23)nnc1-c1ccco1
i | . | CC(C)COC(=O)c1ccc(NC(=O)C2C3C=CC(C3)C2C(=O)O)cc1 (stereo not drawn)
i | i | CCc1nc2c(cnn2-c2ccc(Cl)cc2)c(=O)n1-c1ccc(OC)cc1
i | . | C[C@H](CCC(=O)NCC(=O)O)[C@H]1CC[C@H]2[C@H]3[C@@H](C[C@@H](O)[C@]12C)[C@]1(C)CC[C@H](O)C[C@@H]1C[C@@H]3O
i | . | CCCS(=O)(=O)c1c(S(=O)(=O)CCC)c2ccccn2c1C(=O)OC
i | . | Cc1nc2cnc(Oc3ccccc3)nc2n(-c2ccccc2)c1=O
i | . | CN1CCN(c2ncc3nc(CCc4ccccc4)c(=O)n(C)c3n2)CC1
i | >57 | CC1(C)Cc2ccccc2-c2nnc(SCC(=O)Nc3ccc4c(c3)OCO4)n21

# Next section
TsaE inh | Bst PK mod | molecule
i | >57 | COc1ccc(CCNc2oc(COc3ccccc3F)nc2C#N)cc1
i | ? | NC(=O)CSCc1c(Cl)cccc1Cl
i | . | COC(=O)[C@@]1(Cc2ccc(F)cc2)[C@H]2c3cc(C(=O)N4CCCC4)n(Cc4ccccc4)c3C[C@H]2CN1C(=O)c1ccccc1
i | >57 | COC(=O)c1ccccc1NC(=O)c1cccc(NC(=O)c2ccc(Br)o2)c1C
i | . | COc1ccccc1C(=O)C(O)c1ccccc1OC (stereo not drawn)
i | >57 | CS(=O)(=O)N1CCN(C(=O)c2cccnc2)CC1
i | . | c1ccc(CNc2ncnc3nc[nH]c23)nc1
. | i | COCCNc1oc(-c2ccc(F)cc2)nc1C#N
i | . | COC(=O)Cn1c(CN2CCN(c3ccc(F)cc3)CC2)nc2c1c(=O)n(C)c(=O)n2C
i | >57 | C=C(C)CSc1nc(N)cc(=O)[nH]1
i | . | COc1ccc(C(=O)N2CCC3(CCN(C)CC3)CC2)cc1
i | . | Cc1ncc(CSc2ccccc2N)c(CO)c1O
i | . | CC(=O)/C(C)=N\O
i | >57 | O=C(COc1ccc2ccccc2c1Br)N1CCN(c2ccccn2)CC1
i | . | COc1ccc(CCNC(=O)CN(c2ccc(OC)c(OC)c2)S(C)(=O)=O)cc1

# More entries.
TsaE inh | Bst PK mod | molecule
i | >57 | COc1ccc(OC)c(S(=O)(=O)n2cccn2)c1
i | . | COc1ccc(CCNC(=O)c2ccccc2NC(=O)c2ccco2)cc1OC
i | >57 | CCOC(=O)CSc1nc2c(c(=O)n1-c1ccc(OCC)cc1)SCC2
i | >57 | O=C(CN1CCC(n2nnc3ccccc32)CC1)Nc1ccc2c(c1)CCC2
i | . | CC(C)C[C@@H](CC(=O)N[C@@H](CCC(=O)O)CC(=O)O)NC(=O)[C@@H]1CNCC[C@H]1NC(=O)C[C@H](CCCN)NC(=O)C[C@H](Cc1ccccc1)NC(=O)[C@@H]1CCCC[C@H]1N
i | >57 | Cc1ccc(S(=O)(=O)N2CCN(S(=O)(=O)N3CCCCC3)CC2)c(C)c1
i | >57 | O=C(NCc1ccc2c(c1)OCO2)c1ccc2c(c1)C(=O)N(Cc1cccnc1)C2=O
i | >57 | O=C1OC(Nc2ccc3c(c2)OCO3)c2ccccc21 (stereo not drawn)
i | . | Cc1ccc2[nH]c3c(=O)n(CCCN4CCOCC4)cnc3c2c1
i | . | Cc1cccc(NC(=O)c2cnc3scc(C)n3c2=O)c1
i | . | O/N=C1/CCc2cccc3cccc1c23
i | . | O=C(Nc1ccccc1)N1CCCC2(CCNCC2)C1
i | >57 | CCOc1ccc2nc(NC(=O)c3cnccn3)sc2c1
i | . | CCN(CC)c1cccc(OC2=NS(=O)(=O)c3ccccc32)c1
i | . | Cc1cccc(-c2nc(CS(=O)CC(=O)N3CCCCC3)c(C)o2)c1 (stereo not drawn)

# Shown in CSV form: part of the list above.
smiles,TsaE inh,Bst PK mod
CC(C)COC(=O)c1ccc(NC(=O)C2C3C=CC(C3)C2C(=O)O)cc1 (stereo not drawn),i,.
CCc1nc2c(cnn2-c2ccc(Cl)cc2)c(=O)n1-c1ccc(OC)cc1,i,i

# Following part:
TsaE inh | Bst PK mod | molecule
i | >57 | Cc1sc(NC(=O)COc2cccc(-n3cnnn3)c2)c(C#N)c1C
i | >57 | COc1ccc(NC(=O)CCCN2C(=O)CCC2=O)cc1Cl
i | . | Cc1cc(N2CCOCC2)c2c(N)c(Br)cc(C)c2n1
i | >57 | O=C(CSc1nnc(-c2ccco2)o1)NCC(=O)c1ccccc1
i | >57 | CCc1ccc(S(=O)(=O)NCc2cn3cccc(C)c3n2)s1
i | >57 | CCOC(=O)CC1(C)NC(=O)c2c(C)sc(C(=O)OCC)c2N1 (stereo not drawn)
i | . | Cc1ccc2c(c1)N(CC(=O)NCCN1CCOCC1)C(=O)CO2
i | 0.33* | N#Cc1nc(-c2ccc(OCc3ccc(Cl)cc3)cc2)oc1NCCCn1ccnc1
i | >57 | CCOC(=O)c1c(NC(=O)CSc2ncn[nH]2)sc(C)c1C
i | . | Cc1ccc(-c2oc3ccccc3c(=O)c2O)cc1
i | >57 | COc1ccc2oc(=O)c(C(=O)N3CCN(c4ccc(F)cc4)CC3)cc2c1
i | . | Cc1nc2c(C(=O)NCc3ccc4c(c3)OCO4)c[nH]n2c(=O)c1Cc1ccccc1F
i | >57 | COc1ccc(CC(=O)N2CCN(c3ccccn3)CC2)cc1OC
i | >57 | CC1=C(C(=O)N2CCOCC2)C(c2ccccc2F)C2=C(CC(C)(C)CC2=O)N1 (stereo not drawn)
i | >57 | O=C(Nc1ccccc1)C1CCN(c2nccs2)CC1

# (listing goes on)
TsaE inh | Bst PK mod | molecule
i | . | CCN(CC)CCOC(=O)c1cc(Cl)c(N)cc1OC
i | >57 | COc1ccc(CN2CCC(C(=O)N(C)CCc3ccc(OC)c(OC)c3)CC2)c(OC)c1
i | . | C[N+]1(CCC[N+]2(C)C[C@H]3[C@H](C2)[C@H]2C=C[C@@H]3CC2)CCOCC1 (stereo partly drawn)
i | >57 | O=C(CSc1nnc(-c2ccc(F)cc2)o1)Nc1ccc(S(=O)(=O)N2CCCCCC2)cc1
i | . | N#CC1=C(SCC(N)=O)NC(=O)CC1c1cccc2ccccc12 (stereo not drawn)
i | >57 | O=c1c2c3n(c(=O)nc2[nH]n1-c1ccccc1)CCCCC3
i | . | Cc1cc(C)nc(SCC(=O)Nc2ccc(S(=O)(=O)Nc3nccs3)cc2)n1
. | >26 | COc1ccccc1C(=O)N1CCCC1(C#N)c1ccccc1 (stereo not drawn)
i | . | CC(CC(=O)NC1CCSC1=O)c1ccccc1 (stereo not drawn)
i | . | Cc1cc(OCc2ccc(F)cc2)nc(-c2ccccc2O)n1
i | >57 | COc1cccc(N(C(=O)c2ccco2)C(C(=O)NC2CCCC2)c2ccc(N(C)C)cc2)c1 (stereo not drawn)
i | . | COc1cccc(NC(=O)CSc2ccc3nnc(-c4ccncc4)n3n2)c1
i | >57 | COc1cccc(-c2nnc(NC(=O)c3ccc(S(=O)(=O)N(CC(C)C)CC(C)C)cc3)o2)c1
i | >57 | Nc1sc2c(c1C(=O)NC1CCS(=O)(=O)C1)CCC2 (stereo not drawn)
i | >57 | CC(C)=CCCC(C)CN1CCC(O)CC1 (stereo not drawn)

# (listing goes on)
TsaE inh | Bst PK mod | molecule
i | >57 | Cc1ccc(C2CC(C(F)F)n3ncc(C(=O)Nc4cnn(Cc5ccccc5C)c4)c3N2)cc1 (stereo not drawn)
i | >57 | CNC(=O)N(C1=NCC(C)S1)c1ccc(F)cc1F (stereo not drawn)
i | >57 | COc1ccc(NC(=O)CC(Cc2ccccc2)C(=O)O)cc1 (stereo not drawn)
i | >57 | COc1ccc(N(CC(=O)Nc2ccc(S(=O)(=O)N3CCCC3)cc2)S(C)(=O)=O)cc1OC
i | >57 | O=C(CN(C(=O)C1COc2ccccc2O1)c1ccccc1)NCC1CCCO1 (stereo not drawn)
i | . | COc1cccc(Nc2ncc3nc(CCc4ccccc4)c(=O)n(Cc4cccs4)c3n2)c1
i | . | O=S(=O)(O)[C@@H](CO)c1ccccc1 (tested in a mixture with another compound)
i | >57 | O=C(COC(=O)c1cccc(S(=O)(=O)N2CCOCC2)c1)Nc1ccc2c(c1)OCO2
i | >57 | Cc1ccc(NC(=O)CC(O)(C(F)(F)F)C(F)(F)F)c(Br)c1
i | >57 | O=C(CC1C(=O)NCCN1C(=O)Nc1ccccc1)Nc1cccc(C(F)(F)F)c1 (stereo not drawn)
i | >57 | COC(=O)CSC1=C(C#N)C(c2ccc(C)cc2)C2=C(CCCC2=O)N1 (stereo not drawn)
i | . | COC(=O)[C@@]1(Cc2ccc(OC)cc2)[C@H]2c3cc(C(=O)N(C)C)n(Cc4ccc(C)o4)c3C[C@H]2CN1C(=O)c1ccccc1
. | >26 | Cc1ccc(N2C(=O)CC(N(O)C3CC(=O)N(c4ccc(C)cc4)C3=O)C2=O)cc1 (stereo not drawn)
i | >57 | COc1cc(C)c(C)cc1S(=O)(=O)N1CCCCC1c1cccnc1 (stereo not drawn)
i | . | O=C(Nc1cccc(O)c1)c1ccccc1

# Structures listed so far with a CF3 group:
TsaE inh | Bst PK mod | molecule
i | >57 | O=C1N2CCSC2=NC1(Nc1ccccn1)C(F)(F)F (stereo not drawn)
i | >57 | Cc1ccc(NC(=O)CC(O)(C(F)(F)F)C(F)(F)F)c(Br)c1
i | >57 | O=C(CC1C(=O)NCCN1C(=O)Nc1ccccc1)Nc1cccc(C(F)(F)F)c1 (stereo not drawn)

# (list continues)
TsaE inh | Bst PK mod | molecule
i | >57 | Cc1ccnc(NC(=O)CCC(=O)N(CC(=O)NC2CCCCC2)c2ccc3c(c2)OCO3)c1
i | >57 | O=C1c2ccccc2C(=O)N1CCc1ccccn1
i | >57 | CCOC(=O)c1cc(C#N)c(SCC(=O)c2cc(C#N)c(SC)nc2C)[nH]c1=O
i | >57 | CCOC(=O)N1CCC(NC(=O)C2CCCN(S(C)(=O)=O)C2)CC1 (stereo not drawn)
i | . | COc1ccccc1C1C=C(c2ccccc2)Nc2nnnn21 (stereo not drawn)
i | >57 | COc1ccc2[nH]cc(C3N4CC5(C)CN3CC(C)(C4)C5=O)c2c1 (stereo not drawn)
i | >57 | COC(=O)c1c(NC(=O)CN2CCOCC2)sc2c1CCC(C)C2 (stereo not drawn)
i | >57 | CCN1CCN(c2cc(C)c3cc(NC(=O)c4ccc(Br)o4)ccc3n2)CC1
i | >57 | O=C(NCCOc1ccccc1)c1ncn[nH]1
i | >57 | COc1cccc(-n2nnnc2SCC(=O)Nc2cccc(NC(C)=O)c2)c1
i | . | CCOC(=O)C1CCCN(C(=O)CCc2ccccc2)C1 (stereo not drawn)
i | >57 | O=C(CSc1nnc(-c2ccco2)n1-c1ccccc1)NCc1ccc2c(c1)OCO2
i | >57 | O=C1CNCc2[nH]c3ccccc3c2N1c1ccccc1
i | >57 | COc1ccc(CCN2CCCn3c2nc2c3c(=O)n(Cc3ccccc3F)c(=O)n2C)cc1OC
i | >57 | O=C(O)CSCc1c(F)cccc1Cl

# This is a subset; count on the stated rates, not on these rows.
